Screening results from PubChem.
TAR Tat displ = HIV-1 TAR-Tat binding disruption | HIV-1 TAR RNA, Tat peptide displacement FRET; active compounds read high | z-score (test concentration not listed) | 100,000 compounds, 0.6% hits | AID 1259389;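 further: score is relative to mean and SD of negative controls; some compounds called inactive have numbers as strong as hits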
CDC25B-CDK2 inh = human CDC25B-CDK2/CyclinA binding inhibition. HTRF CDC25B-CDK2/CyclinA binding, anti-His/anti-Flag; active compounds read high. 94,000 compounds, 0.72% hits. z-score (no concentration beside the values). P30305+P24941;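 further: score is relative to mean and SD of negative controls; strong numbers were not always called active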
An asterisk follows results filed as active; · = not tested or not shown.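 How the source made its calls: active means z-score from 3 up in half or more of its runs; inactive means the rest.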

compound	TAR Tat displ	CDC25B-CDK2 inh
CN(C)CCCN1C(=O)C(=O)/C(=C(/O)c2ccc(S(=O)(=O)N(C)C)cc2)C1c1cccnc1 (stereo not drawn)	1.39	1.6
CCOc1nc(C)ccc1-c1noc(-c2ccc(F)cc2)n1	0.92	-0.73
CN1C(C(=O)NC2CCCCC2)=CC(c2ccc3c(c2)OCO3)=NS1(=O)=O	1.1	-1.59
CCc1nnc(NC(=O)CSc2ncnc3ccccc23)s1	0.56	-0.62
Cc1c(C(=O)Sc2ccc(F)cc2F)sc2nc(C(F)(F)F)nn12	·	-1.38
O=c1ccc2cc(S(=O)(=O)N3CCCC(CN4CCc5ccccc5C4)C3)ccc2[nH]1 (stereo not drawn)	1.26	·
CCC(=O)N1CCc2cc(S(=O)(=O)CCC(=O)NCC3COc4ccccc4O3)ccc21 (stereo not drawn)	0.11	·
CCN(CCNc1ncnc2onc(-c3ccc(C)cc3)c12)Cc1ccccc1	1.39	·
CCS(=O)(=O)c1ncc(Cl)c(C(=O)Nc2c(C(=O)Nc3ccccc3)oc3ccccc23)n1	2.2	-1.95
Cc1cn2c(=O)cc(CSc3ccccc3NC(=O)c3ccco3)nc2s1	0.17	·
Cc1ccc(S(=O)(=O)N(C)Cc2nc(-c3ccc(Cl)cc3)no2)cc1	0.11	0.49
O=C1N/C(=N\c2ccccn2)SC1Cc1ccccc1 (stereo not drawn)	·	-3.7
CC1(C)C(=O)Nc2ccc(S(=O)(=O)NCc3ccccc3)cc21	-1.92	·
O=S(=O)(c1ccccc1)n1nc(-c2ccco2)nc1NCc1ccc(F)cc1	2.19	-2.16
CC1CCCCC1NC(=O)c1cc(S(=O)(=O)N2CCCCC2)c[nH]1 (stereo not drawn)	1.29	·
O=c1[nH]nc(SCCS(=O)(=O)c2ccc(F)cc2)n1-c1ccccc1	·	-0.64
CC(C)C(=O)Nc1ccc2oc(-c3cccc4ccccc34)nc2c1	·	-7.79
CC(C)[C@H](N)C(=O)OCCOCn1cnc2c(=O)[nH]c(N)nc21	-0.36	·
c1sc2c(c1CN1CCCCC1)CCCC2	0.75	·
O=S(=O)(Nc1ccc(-c2nnc(-c3ccccc3)o2)cc1)c1ccc(Br)cc1	0.41	·
COc1cccc(NS(=O)(=O)c2ccc3c(c2)oc(=O)n3C)c1	1.49	-1.1
O=c1[nH]cnc2c1sc1nc(N3CCOCC3)c3c(c12)CCCC3	·	-0.24
O=C(CNc1ncnc2onc(-c3ccc(F)cc3)c12)N(Cc1cccs1)C1CCCC1	2.13	-1.95
COc1ccc(-c2onc(C)c2C)cc1S(=O)(=O)Nc1ccc(Br)c(C)c1	-5.89	·
O=C(NCCSCc1c(F)cccc1Cl)c1ccc2nccnc2c1	·	-0.9
CC1(C)NC(=O)N(CC(O)CN(Cc2ccccc2)Cc2ccccc2)C1=O (stereo not drawn)	0.63	-1.11
O=C(CCC1CCCCC1)Nc1ccc(S(=O)(=O)Nc2cnc3ccccc3n2)cc1	·	-0.17
Nc1nc(-c2ccccc2O)cs1	-1.45	-1.97
CCCCSC1=C(C#N)C(=O)NC(c2ccc(OC)c(OC)c2)S1 (stereo not drawn)	0.27	-0.62
CCOc1ccc2nc(SCC(=O)Nc3ccc4c(c3)OCO4)sc2c1	1.33	-2.83

Retrieved one by one from the list above:
compound	TAR Tat displ	CDC25B-CDK2 inh
O=C(CCC1CCCCC1)Nc1ccc(S(=O)(=O)Nc2cnc3ccccc3n2)cc1	·	-0.17
O=c1[nH]cnc2c1sc1nc(N3CCOCC3)c3c(c12)CCCC3	·	-0.24
O=C(NCCSCc1c(F)cccc1Cl)c1ccc2nccnc2c1	·	-0.9
Nc1nc(-c2ccccc2O)cs1	-1.45	-1.97

Next part.
compound	TAR Tat displ	CDC25B-CDK2 inh
CCOC(=O)C1=C(C)NC2=C(C(=O)CC(c3ccc(OC)c(OC)c3)C2)C1c1ccc(SC)cc1 (stereo not drawn)	1.01	-2.18
O=S(=O)(Nc1ccc2[nH]ccc2c1)c1cccs1	·	-0.03
C=CCn1c(O)c(C2=Nc3ccccc3SC(c3cccs3)C2)c(=O)[nH]c1=O (stereo not drawn)	1.06	-0.06
COc1ccc(C2C3=C(CC(C)(C)CC3=O)Nc3nc(SCc4cccc(F)c4)nn32)cc1OC (stereo not drawn)	2.32	0.03
Cn1c(CCc2cccc(NS(=O)(=O)c3ccccc3)c2)nc2ccccc21	2.49	·
CN(Cc1ccccc1)C(=O)Cn1c(=O)oc2cc(S(=O)(=O)NCc3ccccc3)ccc21	-0.24	-0.32
CC(=O)Nc1ccc2c(c1)nc(Cn1ccnc1C)n2C(C)C	1.15	-0.23
c1ccc(CN2CCc3nc(N4CCCC4)ncc3C2)cc1	2.17	·
O=C(O)c1cccc(NC2=NS(=O)(=O)c3ccccc32)c1	-0.07	1.98
CCC1=C(c2ccc(C)cc2)S(=O)(=O)NC1=NCC(=O)NCc1ccc2c(c1)OCO2	0.66	·
Cc1oc2ncnc(N3CCOCC3)c2c1C(=O)N1CCc2ccccc2C1	0.55	·
CCOC(=O)c1c(NC(=O)COCc2cc(-c3ccco3)on2)sc2c1CCCC2	0.6	·
Cc1cc2nc(CSc3nc4ccc(NC(=O)c5ccco5)cc4s3)cc(=O)n2o1	1.18	·
C=CCN1C(=O)C(O)(CC(=O)c2cccc(Br)c2)c2ccccc21 (stereo not drawn)	-0.97	-0.76
CCOC(=O)C1CCCN(S(=O)(=O)c2ccc3c(c2)NC(=O)CO3)C1 (stereo not drawn)	2.61	·
O=C(NC1COc2ccccc2C1)N1CCN(c2ccccc2)CC1 (stereo not drawn)	-0.28	·
Cc1c(C(=O)NCCN2CCOCC2)sc2ncn(CC(=O)N3CCCCC3C)c(=O)c12 (stereo not drawn)	·	-2.28
COc1ccccc1/C=C/c1nn2c(-c3ccncc3)nnc2s1	2.41	-0.83
COc1ccccc1C1CCN(S(=O)(=O)c2ccc(-c3csc(C)n3)s2)CC1	·	-1.04
O=C(NCc1ccco1)C1CC(c2cccc(Br)c2)=NO1 (stereo not drawn)	0.28	0.76
COc1ccc(C(=O)Oc2ccc3c(=O)c(Oc4ccccc4Br)coc3c2)cc1	0.15	-2.46
CC1=C(C(=O)OC2CCCCC2)C(c2ccccc2Br)CC(=O)N1 (stereo not drawn)	0.4	-2.64
CC(C)CCOC(=O)C1C2C=CC3(CN(Cc4cccs4)C(=O)C13)O2 (stereo not drawn)	·	0.42
CC1OC(O[C@H]2/C=C/C=C/C=C/C=C/C=C/C=C/C=C/[C@H](C)[C@@H](O)[C@@H](C)[C@H](C)OC(=O)CC(O)CC(O)CCC(O)C(O)CC(O)CC3(O)C[C@H](O)C(C(=O)O)C(C2)O3)C(O)[C@H](N)C1O (stereo partly drawn)	1.17	·
CCSc1nc(-c2cccc(OC)c2)nc2c1Cc1c(CO)cnc(C)c1O2	-5.85	·
CCN(CC)CCN(C(C)=O)c1nc2cc(C)cc(C)c2s1	-1.3	·
CCN1N=C2/C(=C/c3ccc(C)cc3)CNCC2C1c1ccc(C)cc1 (stereo not drawn)	0.48	-1.2
COc1ccc(-c2ncnn2-c2ccc(Cl)cc2)cc1	0.64	-0.93
COc1ccc(OC)c(C2CC(=O)N3CN(c4ccccc4OC)CSC3=C2C#N)c1 (stereo not drawn)	1.5	3.41*
O=C(CN1Cc2ccccc2C1=O)Nc1cnc2ccccc2c1	0.42	-1.17
CCNC(=O)NC1=C(C#N)C(C)(C)Cc2ccccc21	2.15	-2.22
CCN(C(=O)CSc1nnc(-c2cc3ccccc3[nH]2)o1)c1ccccc1	1.89	-0.39
CCC1(CC)Cc2ccccc2C(NC(=O)Nc2ccccc2F)=C1C#N	1.8	-0.84
CC1CCCCC1NC(=O)C1CCC(CNc2c(N3CCOCC3)c(=O)c2=O)CC1 (stereo not drawn)	·	-1.65
COCCCNc1nc(Nc2ccc(F)cc2)c2cnn(C)c2n1	-0.3	·
CC(C)CC(=O)Nc1nonc1-c1ccc(Br)cc1	1	0.15
COc1ccc(-c2nn3c(C(C)C)nnc3s2)cc1OC	-0.47	-1.07
O=C(c1ccccc1)c1ccc2nc(NCC3CCCO3)c3nncn3c2c1 (stereo not drawn)	1.96	·
O=C(CN1C(=O)CSc2cccn2-c2ccccc21)N1CCOCC1	1.33	·
COc1ccc(S(=O)(=O)Nc2cc(-c3cn4cccc(C)c4n3)ccc2C)cc1C	1.12	-0.81
CC(C)CC1OC(=O)C2=CCCCC21 (stereo not drawn)	0.83	·
O/N=C/C1=C(Cl)c2cc(Cl)ccc2OC1	·	0.23
CC(C)c1nnc(NC(=O)COc2cccc(Br)c2)s1	·	-0.23
CCCCN(C)C(=O)C1CCN(c2ccc(Cl)cc2)C1=O (stereo not drawn)	1.42	·
Cn1c(C(=O)O)ccc1S(=O)(=O)N1CCN(CCO)CC1	·	-2.02
CCCCNC(=O)Nc1cc(C(C)(C)C)nn1C	·	-2.27
Cc1nn(Cc2ccc(C(=O)NCc3ccccn3)o2)c(C)c1[N+](=O)[O-]	0.56	-0.77
O=C1C2C3c4ccccc4C(c4ccccc43)C2C(=O)N1Cc1ccccc1 (stereo not drawn)	0.81	-1.16
CC(=O)N/C(=C\c1sc2ccccc2c1C)C(=O)O	·	-1.32
Cc1c(N(C)C)c(=O)n(-c2ccccc2)n1C	0.5	-0.2

Continuation:
compound	TAR Tat displ	CDC25B-CDK2 inh
CCSc1nnc2c(n1)OC1(CCCC1)Nc1ccc(Br)cc1-2	·	-4.05
Cc1ccsc1CCNC(=O)CCC1=NS(=O)(=O)c2ccccc2N1	2.72	·
CN1CCN(c2ccc3nnc(CCC(=O)Nc4cccc(F)c4)n3n2)CC1	0.02	·
Cc1ccc(C)c(OCCCCc2c(C)n[nH]c2C)c1	-1.76	-0.89
O=C(c1ccc(N2CCCCS2(=O)=O)cc1)N1CCN(c2ccc(N3CCOCC3)nn2)CC1	·	-1.24
O=C(c1cnn(-c2cccc(F)c2)c1-n1cccc1)N1CCN(C2CCCCC2)CC1	1.09	·
CN(C)C=NC(=S)c1sccc1COc1ccc(Cl)cc1	·	0.86
Cc1cc([N+](=O)[O-])nn1CC(=O)Nc1sc2c(c1C#N)CCCCC2	1.43	·
O=c1[nH]c2ccccc2n1Cc1ccc(Cl)cc1	1	-0.77
COc1ccc(-c2noc(CC3CCCCC3)n2)cc1OC	1.64	16*
COc1ccc(-c2noc(NC(C)C)n2)cc1OC	0.9	·
CCCCCCCn1c(CCCO)nc2ccccc21	0.08	-1.96
Cc1ccn2c(=O)c(Cc3nnc(SCC(=O)NC(C)C)n3C)c(C)nc2c1	0.51	-1.31
CCCC1N=C(c2ccc(OC)cc2)CC(c2ccccc2O)N1 (stereo not drawn)	0.01	·
CCN(CC)CC(=O)Nc1c2c(nc3c1CCC3)CCC2	·	0.24
CCOC(=O)N1CCN(C(=O)C2CCCN(S(=O)(=O)c3cccnc3)C2)CC1 (stereo not drawn)	0.25	-0.24
CC(C)c1nn2c(=O)cc(CN3CCN(c4ncccn4)CC3)nc2s1	0.68	·
CC(C)OCCCNC(=O)Cn1c(=O)c2cccn2c2cccnc21	-0.25	·
O=C(O)CC1S/C(=N\N=C\c2ccccc2Cl)NC1=O (stereo not drawn)	·	-0.7
O=C(O)C1CCN(c2nccc3nc(NCc4ccc(Cl)cc4)ncc23)CC1	-0.3	-1.22

Profiles, looked up by structure. Order of screens: TAR Tat displ	CDC25B-CDK2 inh
CCOC(=O)N1CCN(C(=O)C2CCCN(S(=O)(=O)c3cccnc3)C2)CC1 (stereo not drawn) reads 0.25	-0.24
CCCC1N=C(c2ccc(OC)cc2)CC(c2ccccc2O)N1 (stereo not drawn) reads 0.01	·

Going on with the list:
compound	TAR Tat displ	CDC25B-CDK2 inh
CCOC(=O)c1c(C)oc2nc(C)nc(NCCCOC)c12	0.67	·
Fc1ccc(C2CN3C(=N2)C=Cc2ccccc23)cc1 (stereo not drawn)	·	-0.59
CCCCC(=O)Nc1ccc2c(c1)sc(=O)n2C	0.44	·
Cc1ccc(-c2ccc(=O)n(Cc3cc(=O)n4ccccc4n3)n2)cc1C	-0.45	-0.72
CCOC(=O)c1sc(=S)n(-c2ccccc2OC)c1N	1.27	·
O=C1CC(N2CCN(Cc3ccc(Cl)cc3)CC2)C(=O)N1c1ccc(Cl)cc1 (stereo not drawn)	·	-0.42
COc1ccc(Cc2nn3c(Cc4ccccc4)nnc3s2)cc1OC	-1.6	-0.8
COc1ccc(OC(=O)Nc2csc(Cc3ccsc3)n2)cc1	·	-2.42
COc1ccc(-c2noc(NCc3ccc(C)o3)n2)cc1OC	-0.09	·
CCc1nc(-c2csc(S(=O)(=O)N3CCC(C(=O)NCC4CCCO4)CC3)c2)no1 (stereo not drawn)	1.3	·
COc1ccc(S(=O)(=O)N(CCC(C)C)CCS(=O)(=O)N2CCNCC2)cc1	2.06	·
COc1ccc(S(=O)(=O)n2nccc2-c2ccc(-c3cccs3)s2)cc1OC	·	-3.32
CCN1CCN(c2oc(-c3ccc(COc4ccc(C)cc4)o3)nc2C#N)CC1	1.95	-1.47
O=S(=O)(c1cnc[nH]1)N1CCN(Cc2ccc3c(c2)OCO3)CC1	0.14	·
CC(=O)c1sc(SCc2ccc(Cl)cc2)c2c1CC(C)(C)CC2=O	·	-3.69

Quoted from the listing:
CCOC(=O)C1=C(C)NC2=C(C(=O)CC(c3ccc(OC)c(OC)c3)C2)C1c1ccc(SC)cc1 (stereo not drawn) @ CDC25B-CDK2 inh = -2.18
COc1ccc(-c2noc(CC3CCCCC3)n2)cc1OC @ TAR Tat displ = 1.64
COc1ccc(-c2ncnn2-c2ccc(Cl)cc2)cc1 @ CDC25B-CDK2 inh = -0.93
CCOC(=O)C1CCCN(S(=O)(=O)c2ccc3c(c2)NC(=O)CO3)C1 (stereo not drawn) @ TAR Tat displ = 2.61
